# AmpC nodet inh – Promiscuous and Specific Inhibitors of AmpC Beta-Lactamase (assay without detergent) | actives 1.8% (n = 71,000) | P00811 | Potency, µM (top dose mostly 28.7 µM), inactives show at the top dose activity change, negative = inhibition | AmpC nitrocefin hydrolysis, absorbance 480 nm, no detergent; potencies from a single point are estimates; active = falling curve, for most hits resting on a single point; inconclusive = weak or doubtful change; inactive = flat or rising curve; note: % of control where 0% means no effect; about half of the hits show no inhibition at the top dose; a quarter of the inactives give rising signals
# Target sequence (P00811 whole entry, looked up): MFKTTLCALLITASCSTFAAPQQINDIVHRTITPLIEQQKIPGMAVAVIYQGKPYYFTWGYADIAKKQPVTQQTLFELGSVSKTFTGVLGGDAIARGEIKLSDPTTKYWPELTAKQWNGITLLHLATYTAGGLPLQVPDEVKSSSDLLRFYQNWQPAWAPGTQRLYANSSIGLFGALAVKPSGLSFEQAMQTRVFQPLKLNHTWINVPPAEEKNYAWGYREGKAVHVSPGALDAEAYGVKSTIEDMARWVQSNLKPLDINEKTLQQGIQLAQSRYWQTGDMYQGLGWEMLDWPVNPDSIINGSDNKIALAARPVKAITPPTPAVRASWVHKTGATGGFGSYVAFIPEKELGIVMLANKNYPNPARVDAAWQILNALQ
#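 AmpC in 20 mM phosphate buffer pH 7.0 was preincubated 15 min at room temperature with compounds. Nitrocefin (800 uM stock) was then added and hydrolysis followed at 480 nm every 20 s for 4 min.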
# Active calls of the source: *; & = joins results of further samples; [ ] = dose if it differs, or a comment. Potency is the fitted concentration of half-maximal effect. Some of the compounds tested, so the mix of outcomes need not match the whole.
SMILES	AmpC nodet inh
C=CCNC(=O)C1CCN(S(=O)(=O)c2ccccc2)CC1	-14%
CCOC(=O)N1CCN(Cc2nc3c(c(=O)n(C)c(=O)n3C)n2Cc2cc(C)ccc2C)CC1	138%
CCCC(C)C1C(C#N)=C(N)Oc2cc(C)oc(=O)c21 (stereo unspecified)	3%
Cc1cc(NC(=O)COC(=O)C2CCN(S(=O)(=O)c3ccc(Cl)cc3)CC2)no1	-3%
C=CCN(CC=C)S(=O)(=O)c1ncn[nH]1	-11%
CCOC(=O)N1CCN(C(=O)c2ccc(C)c(S(=O)(=O)Nc3cccc(C)c3C)c2)CC1	78%
NC(=O)c1ccc(-c2ccc(Br)cc2)o1	-1%
Cc1noc(C)c1-c1cc(NC2CC2)ncn1	-2%
CC(=O)Nc1nc(-c2ccc(Cl)cc2)nc(C)c1C(C)=O	55%
O=S(=O)(c1cccc2nsnc12)N1CCCC1	3%
CCOc1ccc(C2Oc3nc(SC)nnc3-c3ccccc3N2C(C)=O)cc1OC (stereo unspecified)	15%
O=C(COC(=O)COc1ccc(Nc2ccccc2)cc1)NCc1ccco1	-9%
O=C(O)CCN=C1CCCc2ccccc2N1	3%
CCc1nc(SCC(=O)N2CCc3ccccc32)c2oc3ccccc3c2n1	-8%
CC12CCC(C(=O)NCc3ccccc3)(OC1=O)C2(C)C (stereo unspecified)	10%
COc1ccc(C(=O)COC(=O)c2ccc(OC)c(OC)c2)cc1OC	64%
Cc1nnc(SCc2ccccc2Cl)n1CC1CCCO1 (stereo unspecified)	17%
Cc1ccc2c(c1C)NC(=O)C2(O)CC(=O)c1ccc2c(c1)OCO2 (stereo unspecified)	-13%
COC(=O)CSc1nnc(CNC(=O)c2cccs2)n1-c1cc(OC)ccc1OC	13%
O=C(CSc1nc2c(c(=O)[nH]1)CCCC2)Nc1ccc(Cl)cc1F	-16%
COCCCNS(=O)(=O)c1ccc2c(c1)CCN2C(C)=O	-3%
COc1ccc(CCNC(=O)C2CCCN2C(=O)NC2CCCCC2)cc1OC (stereo unspecified)	-1%
CCn1c(=O)[nH]c2cc(Cl)c(Cl)cc21	16%&-1%
CCCCC(=O)Nc1ccc(C(=O)N2CCN(c3ccccc3OC)CC2)cc1	107%
CCOC(=O)C1CCN(C(c2ccc(OC)c(OC)c2)c2sc3nc(C)nn3c2O)CC1 (stereo unspecified)	72%
Cn1c(O)c(C=NC2CC3CCC2(C)C3(C)C)c(=O)[nH]c1=O (stereo unspecified)	18%
CCOC(=O)c1ccc(NC(=O)C2=C(C)Nc3nc(CCCO)nn3C2c2cccc(C)c2)cc1 (stereo unspecified)	105%
CCCC[C@@H]1C[C@H]1C(NC(=O)c1ccco1)c1ccccc1 (stereo partly specified)	7%
COc1ccccc1CNc1ccnc(-c2cccc(NS(C)(=O)=O)c2)n1	43%
O=C(C1CCN(S(=O)(=O)N2CCC3(CC2)OCCO3)CC1)N1CCN(Cc2ccccc2)CC1	102%
O=C(c1ccc2c(c1)ncn2C1CCCCCC1)N1CCC2(CC1)OCCO2	67%
CC1=C(C(=O)N2CCCCC2)C(c2cccs2)C2=C(CCCC2=O)N1 (stereo unspecified)	17%
CC1CCCC(C)N1C(=O)CSc1nnc(-c2cccs2)o1 (stereo unspecified)	16%
Cc1ccc(S(=O)(=O)N2CC3(C)CN(S(=O)(=O)c4ccc(C)cc4)CC(C)(C2)C3O)cc1 (stereo unspecified)	4%
COc1ccc(-c2nc3cnc(N4CCNCC4)nc3n(-c3ccc(OC)cc3)c2=O)cc1	41%
Cc1ccc(-c2nn3c(C)nnc3s2)cc1NC(=O)CSc1ccc(Cl)cc1	60%
O=C(Cn1ncc2c(=O)oc3ccccc3c21)NC1CC1	0%
CCOc1ccccc1NC(=O)Cc1ccccc1OC	13%
CCOC(=O)Cc1csc(NC(=O)CSc2nc(C)cc(=O)[nH]2)n1	-15%
O=C(c1ccc(CN2CCc3ccccc3C2)cc1)N1CCCCC1	51%
O=C(NCc1cccs1)c1cc2ccccc2o1	-2%
CCCn1c(CCc2ccccc2)nnc1SCC(=O)N1CCCC1	33%
CCOC(=O)c1ccc(-c2nnc(-c3ccc(Cl)cc3Cl)o2)cc1	-12%
CN(C)CCCN1c2ccccc2C(C)(C)c2ccccc21	15%[5.75 µM]
Cc1noc(/C=C/N(C)C)c1S(=O)(=O)N(C)CC(=O)NC1CCCCC1	41%
CCN(CC)CCCn1c(-c2ccccc2)nc2c(NCCOC)nc(C)nc21	7%
CCOc1ccc(C(=O)Nc2nnn(CC)n2)cc1	2%
O=c1cc(O)c2c(=O)n3c4c(cccc4c2o1)CCC3	-1%
CCOC(=O)COc1nc(Nc2ccccc2C)nc(N(C)C)n1	20%
COc1ccc(NS(=O)(=O)c2ccc(NS(=O)(=O)c3ccc(C)cc3)cc2)nn1	-1%
COc1ccc(Br)cc1CNC(=O)C1CCCN(S(C)(=O)=O)C1 (stereo unspecified)	-10%
O=C1CC(N2CCOCC2)C(=O)N1Cc1ccc(N2CCCC2=O)cc1 (stereo unspecified)	-4%
CCOC(=O)N1CCN(C(=O)c2cc(C)c3c(C)nn(-c4ccccc4)c3n2)CC1	130%
Cc1c(C(=O)N2CC(C)OC(C)C2)sc2nc(-c3ccc(F)cc3)cn12 (stereo unspecified)	78%
Cc1cc(N2CCN(C(=O)c3ccco3)CC2)n2nc(-c3cccc(Cl)c3)cc2n1	104%
CCOC(=O)c1cnn(CCOC(=O)C(C)(C)C)c1NC(=O)C(C)(C)C	12%
CCCCSc1nsc(NC(C)=O)n1	-5%
CCOC(=O)CCCn1c(C)nc(=O)c(-c2ccccc2)c1C	-3%
Brc1c(NC2=NCCN2)ccc2nccnc12	41%&-16%
CCCS(=O)(=O)NCCc1cc2ccc(C)cc2[nH]c1=O	5%

# Later entries:
SMILES	AmpC nodet inh
CSCC[C@H](NC(=O)C1CCN(S(=O)(=O)c2ccc(C)cc2)CC1)C(=O)NCc1ccco1	11%
CN(C)CCC=C1c2ccccc2CCc2ccccc21	25%
Cc1sc2ncnc(OCC(=O)NCc3cccs3)c2c1C	1%
O=C(O)CCC(=O)Nc1nnc(C(F)(F)F)s1	-7%
C=C(C#N)C(=O)OCC	-9%
Cc1ccc(C)c(-n2c(Cc3cc(=O)[nH]c(=O)[nH]3)nnc2SCC(=O)NCC2CCCO2)c1 (stereo unspecified)	-4%
Cc1ccccc1NC(=O)CSc1[nH]c(=O)cc(C)c1C#N	-7%
Fc1ccc2nc(-c3ccccc3)nc(SCc3nnc(-c4ccccc4)o3)c2c1	-11%
Cc1nc(-c2ccc(C(=O)N3CCOCC3)cc2)cs1	1%
CCn1cc(C(=O)N2CCCc3ccccc32)c2cc(OC)c(OC)cc2c1=O	61%
CC(=O)N1[C@H](C)C=C[C@]1(Cc1ccccc1)C(=O)NCCN1CCOCC1	11%
CCOC(=O)c1ccc2nc(NC(=O)c3ccco3)sc2c1	51%
COc1cc(NC(=O)c2ccc(COc3ccccc3Br)o2)cc(OC)c1OC	78%
Cc1ccc2nc(SCC(=O)NC(=O)NCc3ccco3)[nH]c2c1	-22%
COC(=O)c1cc(Br)c(=O)n(CCN2CCOCC2)c1	-3%
O=C(CCS(=O)(=O)c1ccc(Br)s1)NCc1ccc2c(c1)OCO2	-16%
COC(=O)C1CCN(c2nc3ccccc3nc2C(C#N)C(=O)OCC(C)C)CC1 (stereo unspecified)	57%
CCn1c(SCC(=O)Nc2cc(OC)c(OC)c(OC)c2)nnc1-c1cccs1	23%
COCCNC(=O)CN(Cc1ccc2c(c1)OCO2)C(=O)CCC(=O)Nc1nccs1	17%
O=C(NCc1cccs1)c1ccc2c(c1)OCCO2	-13%
CCC(C(=O)OC)n1cnc2c(nnn2-c2ccc(OC)cc2)c1=O (stereo unspecified)	10%
c1ccc2oc(NC3=NCN(CC4CCCO4)CN3)nc2c1 (stereo unspecified)	10%
CCOC(=O)c1cc(-c2ccc(F)cc2)n(CC(=O)N2CCCC2)c1C	105%
COc1nc(-c2ccccc2)ccc1-c1noc(-c2ccccc2F)n1	5%
COc1ccc([C@@H]2CC(=O)c3c(O)cc(O[C@@H]4O[C@@H](CO[C@@H]5O[C@@H](C)[C@@H](O)[C@@H](O)[C@H]5O)[C@@H](O)[C@@H](O)[C@H]4O)cc3O2)cc1O	7%
CCSc1nnc(-c2ccc(S(=O)(=O)N3CCOCC3)cc2)n1CC1CCCO1 (stereo unspecified)	24%
COC(=O)C1C(=O)c2c([nH]c(C(=O)OCCSC)c2C)CC1C (stereo unspecified)	10%
CCOC(=O)Nc1ccc(NC(=O)c2c(OC)cccc2OC)cc1	3%
C=CCc1cccc(/C=N/c2ncccc2O)c1O	-18%
O=C(c1ccco1)N1CCN(S(=O)(=O)c2ccc(F)cc2)CC1	1%

# As entered above.
# Reading of CCn1c(SCC(=O)Nc2cc(OC)c(OC)c(OC)c2)nnc1-c1cccs1 in AmpC nodet inh: 23%
# Reading of O=C(CCS(=O)(=O)c1ccc(Br)s1)NCc1ccc2c(c1)OCO2 in AmpC nodet inh: -16%
# Reading of CCSc1nnc(-c2ccc(S(=O)(=O)N3CCOCC3)cc2)n1CC1CCCO1 (stereo unspecified) in AmpC nodet inh: 24%
# Reading of CCOC(=O)c1cc(-c2ccc(F)cc2)n(CC(=O)N2CCCC2)c1C in AmpC nodet inh: 105%

# Following part.
SMILES	AmpC nodet inh
C=CCOc1cccc(C2/C(=C(/O)c3ccccc3)C(=O)C(=O)N2CCN2CCOCC2)c1 (stereo unspecified)	15%
CCOc1ccc(-n2c(SCC(=O)NCc3ccco3)nc3c(c2=O)SCC3)cc1	-4%
Cc1sc2ncnc(SCc3ccco3)c2c1C	2%
C1=Nc2c(NCc3ccccc3)ncnc2Oc2ccccc21	-10%
CC1=Nn2c(nnc2-c2ccccc2F)SC1	15%
CC(C)OP(C)(=O)CN1CCN(CP(C)(=O)OC(C)C)CC1 (stereo unspecified)	8%
CC(C)c1ccc2c(c1)CC[C@H]1[C@@](C)(CN)CCC[C@@]21C	13%[5.75 µM]
O=C(OCc1ccc(F)cc1Cl)c1ccccn1	24%
Cc1ccc(-n2c(=O)cc(N3CCCCCC3)[nH]c2=O)cc1	-8%
Cc1ccc(F)cc1NC(=O)c1c(-c2ccccc2)noc1C	2%
CNc1oc(Cc2ccccc2)nc1S(=O)(=O)c1ccccc1	-7%
COC(=O)C1=C(N)Oc2cc(C)oc(=O)c2C1c1cccnc1 (stereo unspecified)	-22%
CC(C)CNC(=O)O	3%[5.75 µM]
COCC(=O)Nc1ccccc1C(=O)NC(C)C	0%
O=C1CC(N2CCN(c3cccc(C(F)(F)F)c3)CC2)C(=O)N1c1ccccc1F (stereo unspecified)	92%

# Grouped by structure, the entries above containing a COOH group
SMILES	AmpC nodet inh
O=C(O)CCN=C1CCCc2ccccc2N1	3%
O=C(O)CCC(=O)Nc1nnc(C(F)(F)F)s1	-7%

# The listing continues:
SMILES	AmpC nodet inh
CCCCCCc1nc2ccccc2c(=O)n1N	5%
C=C(C)c1cccc(C(C)(C)NC(=O)Nc2ccc3[nH]c(=O)[nH]c3c2)c1	-12%
CCCS(=O)(=O)N1CCN(S(=O)(=O)c2ccc(F)cc2)CC1	18%
Cc1nc(=O)c(-c2ccccc2)c(C)n1-c1ccccc1O	-4%
Cc1ccc(-n2c(=O)[nH]cc(C(=O)N3CCc4ccccc43)c2=O)cc1	-3%
Nc1nc2n(n1)C(c1ccco1)CC(c1ccc(Cl)cc1Cl)N2 (stereo unspecified)	76%
O=C(OCC(=O)N1CCN(C(=O)c2ccco2)CC1)c1ccccc1OCc1ccc(Cl)cc1	123%
O=C(c1ccc(S(=O)(=O)N2CCCCC2)cc1)N1CCN=C1SCc1cccnc1	5%
Cc1ccc(-n2c3c(cc(C(=O)NC4CCSC4=O)c2=O)C(=O)CCC3)cc1 (stereo unspecified)	35%
CCOC(=O)CNC(=O)c1c(C)nn(-c2ccccc2)c1Cl	-8%
Cc1cccc(N2CCN(C(=O)C3CCN(S(=O)(=O)c4cnc[nH]4)CC3)CC2)c1C	53%
CCS(=O)(=O)N1CCN(Cc2ccccc2OC)CC1	6%
CC1CN(Cc2ccc(C#N)cc2Cl)CC(C)O1 (stereo unspecified)	24%
CC(=O)CCc1c(C)c2cc(C)ccc2[nH]c1=O	13%
CCn1c(SC(=O)NC2CCCCC2)nnc1-c1cccs1	-16%
O=C(CCSCCC(=O)NCc1cccs1)NCc1cccs1	-9%
O=C(c1ccco1)N1CCC[C@@]2(CCN(Cc3ccncc3)C2)C1	67%
CCOC(=O)c1c(C)[nH]c(C=Nc2ccccc2)c1O	-6%
COc1ccc(Cc2nnc(SCC(=O)c3ccc(OC)cc3)o2)cc1	22%
Cc1nnc(SC(C)C(=O)Nc2ccc(S(=O)(=O)N3CCCCCC3)cc2)s1 (stereo unspecified)	23%
O=C(CSc1nc(-c2ccccc2)cs1)Nc1nccs1	10µM*
COc1ccc(N2CCC(CNS(=O)(=O)c3cccc(C(F)(F)F)c3)C2)cc1 (stereo unspecified)	-3%
CCN(Cc1ccncc1)C(=O)c1cccc(S(=O)(=O)N2CCOCC2)c1	-10%
C=CCN1C(=O)CN=C1Nc1cccc(C)c1	-5%
CC1=C2C(CCS2(=O)=O)CC2(C1)C(=O)OC(C)(C)OC2=O (stereo unspecified)	1%
Cc1cc(Nc2ccc(Cl)cc2)n2nnnc2n1	-2%
COc1nc(Nc2ccc(OC)c(Cl)c2)nc(OC)n1	14%
Cc1cc(C)n(-c2ccc(N3CCOCC3)nn2)n1	4%
CCn1c(=O)cc(OCC(=O)NC2CCCCC2)c2ccccc21	20%
Cc1nnc(NC(=O)CSc2nnc(-c3ccoc3C)n2CC(C)C)s1	5%
C=C[C@H](N)CCC(=O)O	28%
